# Cruzain inh noDet: qHTS Assay for Promiscuous and Specific Inhibitors of Cruzain (without detergent); Cruzipain (Trypanosoma cruzi), P25779; AID 1476, 2009; purified cruzain, Z-FR-AMC fluorescence, no detergent; Potency, µM, for inactives: max response, negative = inhibition, most hits filed as inhibitors; 200,000 compounds, 2.3% hits; active means well fitted curve in the direction sought with a large enough effect; inconclusive means small, poorly fitted or top-dose-only effect, or another doubt; inactive means no such curve, though single readings can be large; an effect the other way counts as inactive or inconclusive;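 further: plate controls were enzyme without inhibitor for no effect and buffer without enzyme for full effect; nearly all actives have a fitted effect of over 40% in size; top concentration of the series not given in the record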
# Target sequence (P25779 123-467 limits assumed): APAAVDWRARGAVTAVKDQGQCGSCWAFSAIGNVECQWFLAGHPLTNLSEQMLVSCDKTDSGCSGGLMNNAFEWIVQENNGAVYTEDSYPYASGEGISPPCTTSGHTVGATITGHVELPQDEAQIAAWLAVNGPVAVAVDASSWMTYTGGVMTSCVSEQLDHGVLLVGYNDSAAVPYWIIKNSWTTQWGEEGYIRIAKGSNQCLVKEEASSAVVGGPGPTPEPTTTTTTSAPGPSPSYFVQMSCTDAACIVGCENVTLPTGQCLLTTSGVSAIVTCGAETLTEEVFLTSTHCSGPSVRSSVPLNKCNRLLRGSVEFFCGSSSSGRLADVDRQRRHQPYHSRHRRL
#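 Detergent-free condition (0.00005% Triton X-100) in acetate buffer pH 5.5 with DTT. 1.5 nM enzyme and compound were pre-mixed 15 min, then 2 uM Z-FR-AMC substrate added; reaction progress from fluorescence change between first and third reads (60 s).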
# RE007 growth inh: qHTS Assay for Inhibitors of the HIV-1 protein Vpr. 360,000 compounds, 0.21% hits. AID 651644, 2012. Potency, µM (doses to about 92.2 µM), for the others: at the highest dose activity change, negative = less growth. S. pombe RE007 Vpr strain, BacTiter-Glo ATP luminescence, 24 h; control for the full effect not named in the record; active = well fitted falling curve with a large enough effect; inconclusive = small, poorly fitted or top-dose-only effect; inactive = no such curve, though single readings can be large or run the other way;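 further: on the % scale 0 is the no-effect control and ±100 the full control effect; nearly all actives have a fitted effect of over 50% in size; the assay follows cell death caused by Vpr and the record does not say whether a fall means rescue or toxicity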
#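 Fission yeast strain RE007, carrying one chromosomally integrated HIV-1 vpr copy, was seeded at OD 0.01 in PMG+AL medium with 23 nL pinned compound. After 24 h at 30 °C and 99% humidity, viability was read by BacTiter-Glo luminescence.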
# Cruzain inh Det: qHTS Assay for Promiscuous and Specific Inhibitors of Cruzain (with detergent) | Cruzipain (Trypanosoma cruzi), P25779 | AID 1478, 2009 | Potency, µM, for inactives: max response, negative = inhibition, hits mostly inhibitors | 200,000 compounds, 0.43% hits | purified cruzain, Z-FR-AMC fluorescence, 0.01% Triton; active means well fitted curve in the direction sought with a large enough effect; inconclusive means small, poorly fitted or top-dose-only effect, or another doubt; inactive means no such curve, though single readings can be large; an effect the other way counts as inactive or inconclusive;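 further: plate controls were neutral wells for no effect and buffer without enzyme for full effect; nearly all actives have a fitted effect of over 40% in size; top concentration of the series not given in the record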
#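 Steps: dispense cruzain (1.5 nM final) in acetate buffer pH 5.5 with DTT and 0.01% Triton X-100; pin-transfer compounds; incubate 15 min RT; add Z-FR-AMC (2 uM final); read fluorescence every 30 s, using the 60 s intensity change.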
# Lassa entry inh: qHTS for Inhibitors of binding or entry into cells for Lassa Virus. Potency, µM (top dose mostly 37.9 µM), inactives show top-dose activity change, negative = inhibition, most hits filed as inhibitors. 300,000 compounds, 1.2% hits. AID 540256, 2011. Lassa virus pseudotype entry inhibition, cell reporter; control for the full effect not named in the record; active means well fitted inhibition curve with a large enough effect; inconclusive means small, poorly fitted or top-dose-only effect, or effect the other way; inactive means flat fitted curve, though single readings scatter; tested in HEK293 cells; further: on the % scale 0 is the no-effect control and ±100 the full control effect; nearly all actives have a fitted effect of over 50% in size; luciferase read-out
# NS1 inh: qHTS Assay for Inhibitors of Influenza NS1 Protein Function | S. cerevisiae slowed by influenza A NS1, growth recovery by OD600 | Potency, µM (highest dose often 46.1 µM), for the others: at the top dose activity, positive = more growth | 270,000 compounds, 0.4% hits | AID 2326, 2010; further: actives are rising curves; nearly all actives have a fitted effect of over 50% in size
#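 Read-out: OD600 growth recovery of NS1-expressing budding yeast. Cells grown overnight at 30C in -URA glucose medium, washed, resuspended and diluted 1:100 in 2% galactose assay medium, pH 6.0. Same strain lacking NS1 served as positive control.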
# StopGo reporter: High Throughput Screening for Foot and Mouth Disease Virus Antivirals | Potency, µM (highest dose often 57.9 µM), inactives show at the highest dose signal change, negative = less light | 410,000 compounds, 1.2% hits | AID 1159524, 2015 | human cells with a luciferase reporter of 2A StopGo recoding; control for the full effect not named in the record; active = well fitted falling curve with a large enough effect; inconclusive = small, poorly fitted or top-dose-only effect; inactive = no such curve, though single readings can be large or run the other way; tested in HEK293T cells; further: on the % scale 0 is the no-effect control and ±100 the full control effect; nearly all actives have a fitted effect of over 45% in size; luciferase light after 4 h
# SARS PLP yeast: qHTS of Yeast-based Assay for SARS-CoV PLP; S. cerevisiae expressing SARS-CoV PLpro, growth rescue; control for the full effect not named in the record; 330,000 compounds, 0.19% hits; Potency, µM (doses to about 32.9 µM), for the others: at the highest dose activity, positive = growth rescue; further: 0% is about no effect; nearly all actives have a fitted effect of over 55% in size; growth read by luminescence after 48 h
# MARV entry inh: qHTS for inhibitors of binding or entry into cells for Marburg Virus; Potency, µM (doses to about 37.8 µM), without a hit: at the top dose activity change, negative = inhibition, actives largely listed as inhibitors; AID 540276, 2011; Marburg virus pseudotyped entry inhibition, cell reporter; control for the full effect not named in the record; about a third of the inactives were read at about 46 µM; 300,000 compounds, 1.8% hits; active = well fitted inhibition curve with a large enough effect; inconclusive = small, poorly fitted or top-dose-only effect, or effect the other way; inactive = flat fitted curve, though single readings scatter; tested in HEK293 cells; about a fifth of its hits are not listed in these tables; further: on the % scale 0 is the no-effect control and ±100 the full control effect; luciferase read-out
# * hit, by the source's call; ? = inconclusive; · = no result given; & = joins results of further samples; [ ] = dose if it differs, or a comment. Unless noted, the call rests on the fitted dose curve; in most records, active means well fitted rising curve with a large enough effect; inconclusive means small, poorly fitted or top-dose-only effect; inactive means no such curve, though single readings can be large or run the other way. Potency means the concentration at half of the fitted maximal effect. An unsorted share of the library; about 4.7% have a hit in one of these screens.
SMILES,Cruzain inh noDet,RE007 growth inh,Cruzain inh Det,Lassa entry inh,NS1 inh,StopGo reporter,SARS PLP yeast,MARV entry inh
CCN(C(=O)COC(=O)CCc1ccccc1OC)c1c(N)n(Cc2ccccc2)c(=O)[nH]c1=O,·,-4%,·,4%,·,0%,-4%,14%
COc1ccc(OC)c(NC(=O)CC2SC(=Nc3ccc(F)cc3)N(CCC3=CCCCC3)C2=O)c1 (centres undefined),20µM*,-7%,-6.7%,?,15%,-23%,11%,?
CCNC(=O)c1ccc(=O)n(Cc2ccc(Cl)cc2Cl)c1,·,3%,·,-2%[46.1 µM],·,-6%,·,?
Cc1cccc(Cc2c(C)nc3c(C(=O)NCc4ccco4)cnn3c2C)c1,-8%,12%,?,?,-73%,?,-3%,?
Cc1c(NC(=S)N/C(=N/S(=O)(=O)c2ccc(Cl)cc2)c2ccccc2)c(=O)n(-c2ccccc2)n1C,·,-1%,·,-1%,0%,9%,1%,-10%[46.1 µM]
CCOCCCNC(=O)c1cc2c(=O)[nH]c3ccccc3c2n1C,14%,·,0.3%,-9%[46.1 µM],·,-3%,·,11%[46.1 µM]
COc1cccc(-n2c(SCC(=O)c3ccccc3)nc3c([nH]c4ccccc43)c2=O)c1,2%,·,2.8%,?,·,-10%,·,·
CC(C)N1CCC(=NNC(=O)c2cccs2)CC1,·,2%,·,10%[46.1 µM],-4%,6%,-1%,?
COc1cc(C=O)ccc1OCC(=O)Nc1cccc(S(=O)(=O)N(C)c2ccccc2)c1,·,1%,·,-4%,·,-7%,-8%,0%
COc1ccccc1N1CCN(C(CNC(=O)C(=O)NCCN(C)C)c2cccnc2)CC1 (centres undefined),3%,·,-1.8%,-2%[46.1 µM],·,-18%,·,·
COc1ccc(C(=O)NCC(=O)N2CCCC(C(F)(F)F)C2)cc1OC (centres undefined),·,11%,·,?,·,-10%,-2%,-19%
C/C(=N/NC(=O)c1cc(Cl)ccc1O)C12CC3CC(CC(C3)C1)C2,1%,4%,1.4%,-1%,-31%,?,-3%,14%
Clc1ccc(CSc2nnc(-c3cccnc3)o2)cc1,-9%,-23%,-1.1%,23%,-51%,17%,-2%,11%
COc1ccc(OC2CCN(C(=O)Nc3ccc(C)cc3)CC2)cc1,·,1%,·,11%[46.1 µM],-6%,10%,-2%,-28%[46.1 µM]
CC(=O)/C(C(=N)N1CCN(c2cccc(Cl)c2)CC1)=C(\C)O,-8%,-2%,7.0%,8%,2%,·,8%,6%
O=C(Oc1cc(=O)oc2ccccc12)c1ccccc1,·,-2%,·,·,5%,-18%,0%,·
CCCCN(CC)CCNC(=O)Cn1cc2c(n1)-c1c(oc(C(=O)N3CCCC3)c1C)CC2,-3%,2%,-1.6%,11%[46.1 µM],-1%,-8%&0%,?,·
CCCCCCN1CC(=O)N2[C@@H](Cc3c([nH]c4ccccc34)C2(C)C)C1=O,·,10%,·,·,5%,-20%,-1%,·
CCCc1nn2c(=O)cc(COC(=O)c3cccs3)nc2s1,-12%,·,4.7%,13%[46.1 µM],·,0%,·,·
CCC1CN(C(=O)N2CCC(C(=O)N3CCN(c4ccccc4)CC3)CC2)c2ccccc2O1 (centres undefined),-11%,·,-5.4%,-29%[46.1 µM],·,-13%,·,·
CCn1cc(C(=O)N(C)c2ccccc2F)c2cc(OC)c(OC)cc2c1=O,·,-2%,·,·,4%,-20%,4%,·
CCc1nnc(NC=C2C(=O)OC(C)(C)OC2=O)s1,4%,12%,-0.7%,19%,10%,20%,5%,6%
O=C(NCC(c1ccco1)N1CCOCC1)c1ccc(F)cc1 (centres undefined),·,-3%,·,12%,·,4%,-3%,24%[46.1 µM]
Cc1cccc(OCCCN2C(=O)C(=O)c3cc(C)ccc32)c1,·,-6%,·,·,-5%,-14%,-3%,·
CC(CNC(=O)c1cc(COc2ccc3ncccc3c2)on1)c1ccccc1 (centres undefined),·,-4%,·,?,-2%,?,2%,?
O=C(NCc1ccc(F)cc1)C(=O)c1cn(CC(=O)N2CCCC2)c2ccccc12,·,1%,·,?,7%,5%,3%,-7%[46.1 µM]
CCc1ccc(NC(=O)CSc2nc(-c3ccccc3)no2)cc1,6%,·,-6.3%,-7%[46.1 µM],·,27%,·,·
CCCCn1cnc2c1c(=O)[nH]c(=O)n2CCCC,-3%,19%,5.8%,15%,-7%,7%,13%,-31%
Cc1ccccc1N/C=C/C(=C(C#N)C#N)N(C)C,-6%,4%,-2.2%,15%,3%,·,-3%,20%
CC(C)Cn1c(N)c(C(=O)COC(=O)/C=C/c2cccs2)c(=O)n(C)c1=O,·,5%,·,?,3%,18µM*,-3%,?
Cc1ccc(C)c(N2CCN(C(=O)C3CCCN(S(=O)(=O)c4cnc[nH]4)C3)CC2)c1 (centres undefined),?,3%,-1.7%,·,-5%,3%,4%,-1%
Cc1ccccc1C(=O)NNC(=O)C1CC(=O)N(c2ccc3c(c2)OCCO3)C1 (centres undefined),·,35%,·,1%,·,-2%,1%,-4%
CCOC(=O)N1CCC(NC(=O)CCC(=O)N2CCOc3ccccc32)CC1,-13%,3%,5.5%,4%,?,-12%,0%,8%
CN1C(=O)C(C)(C)c2cc(S(=O)(=O)N3CCN(c4ccc(F)cc4)CC3)ccc21,·,-8%,·,·,1%,-2%,-2%,·
CC1(C)CC(NC(=O)c2coc(=O)c(Br)c2)CC(C)(C)N1,-4%,-2%,-4.9%,-1%,2%,32µM*,1%,3%
CCOC(=O)C1CCN(S(=O)(=O)c2cc(C(=O)N3CCCCC3)ccc2OC)CC1,·,-10%,·,4%,1%,6%,?,-20%
O=C(O)c1cccc(S(=O)(=O)N2CCN(Cc3ccc4c(c3)OCO4)CC2)c1,·,-13%,·,2%[46.1 µM],3%,-7%,9%,3%[46.1 µM]
CC(C)(C)NC(=O)NCc1cccnc1,·,15%,·,·,6%,2%,0%,·
COc1ccc(NC(=O)CCC(=O)N/N=C/c2cn(C)nc2C)cc1,·,-26%,·,2%,?,-21%,1%,7%[46.1 µM]
O=C(Nc1ccccc1)N(Cc1c[nH]c2ccccc12)C1CCCCCC1,21%,·,-16%,-5%[46.1 µM],·,13%,·,4%[46.1 µM]
Cn1cnc([N+](=O)[O-])c1Sc1nc(N)nc2c1ncn2Cc1ccccc1,3%,27%,3.2%,-28%,-1%,0%,·,?
CC(C)(C)NC(=O)CSc1nnc(-c2ccco2)n1Cc1ccco1,3%,-11%,4.0%,0%,-4%,12%,13%,10%
O=C(c1cc2ccccc2oc1=O)N1CCN(CCc2ccccc2)CC1,-5%,-7%,0.0%,22%,11%,-6%,1%,2%
Cc1ccc(-c2nc3n(n2)Cc2ccccc2-3)cc1,?,?,-3.9%,?,-12%,-84%,-33%,?
O=C(NCCc1ccccc1)c1ccc(OCCOc2ccccc2)cc1,20µM*,-9%,2.5%,?,10%,13%,1%,3%
O=C(NC(=S)NCC1CCCO1)c1ccc([N+](=O)[O-])cc1 (centres undefined),-2%,5%,1.3%,1%,26%,13%,9%,-9%
O=C(NNC(=S)Nc1ccccc1)c1ccc2ncccc2c1,·,-2%,·,4%,·,0%,-2%,3%[46.1 µM]
O=C(NC(=O)c1cc(OCC(F)(F)F)ccc1OCC(F)(F)F)Nc1ccccc1,·,4%,·,·,0%,11%,-1%,·
Cc1ccc(-c2nc3ccccc3o2)cc1NC(=O)Cc1ccc(Cl)cc1,-7%,·,-1.8%,?,·,0%,·,·
Cc1occc1-c1nnc(SCC(=O)Nc2ccccc2)n1Cc1ccccc1,-1%,0%,-0.9%,-13%,-31%,·,-2%,?

# The list goes on.
SMILES,Cruzain inh noDet,RE007 growth inh,Cruzain inh Det,Lassa entry inh,NS1 inh,StopGo reporter,SARS PLP yeast,MARV entry inh
CC(=O)c1ccc(NC(=O)c2ccc(N3C(=O)c4cccnc4C3=O)cc2)cc1,·,-1%,·,0%,-12%,-19%,-5%,11%
Cc1ccc2[nH]c(=O)c(C(c3nnnn3C3CCCC3)N(Cc3cccnc3)Cc3ccco3)cc2c1 (centres undefined),4%,-2%,-3.8%,?,-51%,-12%,4%,?
O=S(=O)(NCCc1csc(-c2cccnc2)n1)c1cccc(F)c1,·,-19%,·,19%,-52%,4%,-5%,-2%
COC(c1ccccc1)c1nnc(CCC(=O)NCCc2ccc(Cl)cc2)o1 (centres undefined),·,1%,·,·,1%,-9%,8%,·
CN(C)CCNc1oc(-c2cccc(Cl)c2)nc1C#N,8%,17%,-8.4%,-1%,1%,14%,-10%,-7%
Brc1ccccc1OCCCN1CCCCCC1,·,-10%,·,-24%,-1%,-3%,-2%,?
O=C1N(c2ccccc2)CCN1c1ccccc1,·,-12%,·,·,-2%,0%,0%,·
O=C(CNC(=O)/C(=C\c1ccccc1)NC(=O)c1ccc(Br)cc1)OCc1ccccc1,-10%,-10%,-30%,17%,1%,-12%,-2%,-8%
COc1cccc(-c2ccc(NC(=O)C3CCCN(Cc4ccco4)C3)cc2)c1 (centres undefined),·,4%,·,-20%,·,-15%,·,?
CC(C)CN(C(=O)COC(=O)CNC(=O)c1ccccc1)c1c(N)n(Cc2ccccc2)c(=O)[nH]c1=O,·,-3%,·,-2%,·,4%,1%,28%
CCCN(CC(=O)Nc1ccccc1C)C(=O)c1ccc(N2CCCC(C)C2)c([N+](=O)[O-])c1 (centres undefined),·,19%,·,-18%,·,-11%,·,-18%[46.1 µM]
CCSC1=NC2(CCN(C(=O)NC3CCCCC3)CC2)N=C1c1ccc(C)c(C)c1,-7%,·,-0.6%,?,·,-16%,·,·

# Bioassay records (PubChem BioAssay)
